Source: PubChem (National Center for Advancing Translational Sciences (NCATS))
TRPML1 agonist: agonists of human TRPML1 channel; Q9GZU1; activation, % (concentration not given with the values); TRPML1-expressing cells, Ca2+ dye fluorescence, FDSS; host cell line not named in the record; reference of the full effect not given here; actives 0.12% (n = 410,000); in the data active = activation above about 50%; inconclusive = about 30% to 50%; inactive = below about 30%; note: 0% is about no effect; the text of the record puts the active cut at 80%
Target sequence (Q9GZU1 whole entry, looked up): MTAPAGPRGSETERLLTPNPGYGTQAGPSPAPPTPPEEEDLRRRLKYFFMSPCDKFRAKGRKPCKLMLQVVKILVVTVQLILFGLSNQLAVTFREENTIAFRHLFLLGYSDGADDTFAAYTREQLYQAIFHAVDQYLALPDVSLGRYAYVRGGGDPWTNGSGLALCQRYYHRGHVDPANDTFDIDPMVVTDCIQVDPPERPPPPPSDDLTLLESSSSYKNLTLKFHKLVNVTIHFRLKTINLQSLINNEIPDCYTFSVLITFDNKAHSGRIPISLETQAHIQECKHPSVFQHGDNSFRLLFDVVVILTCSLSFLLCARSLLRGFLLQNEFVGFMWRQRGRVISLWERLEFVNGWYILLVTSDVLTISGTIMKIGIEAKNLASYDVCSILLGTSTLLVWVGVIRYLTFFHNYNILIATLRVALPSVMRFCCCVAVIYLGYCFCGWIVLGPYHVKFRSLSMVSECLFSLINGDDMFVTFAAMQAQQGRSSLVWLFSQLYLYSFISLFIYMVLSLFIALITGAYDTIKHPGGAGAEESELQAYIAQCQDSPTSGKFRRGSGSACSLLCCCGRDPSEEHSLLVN
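TRPML1-DL cells, Tet-induced overnight (~16 h, 37 degrees C), loaded 45-90 min at room temperature with Ca8 no-wash calcium dye plus quencher. FDSS fluorescence: 10 s baseline, compound pin-transfer, 110 s agonist read, then EC80 54-4 (4uM final) and 110 s antagonist read.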
D2 ag: agonists of human D2 dopamine receptor (beta-arrestin); P14416; AID 624465; actives 0.084% (n = 360,000); activation, % (test concentration not listed); DiscoveRx PathHunter D2 beta-arrestin, luminescence, 90 min; 100% = 57 uM dopamine signal; in the data active = activation above about 40%; inconclusive = about 15% to 40%; inactive = below about 15%; note: compound concentration not given in the record; the text of the record calls up to 30% inactive
Target sequence (P14416 whole entry, looked up): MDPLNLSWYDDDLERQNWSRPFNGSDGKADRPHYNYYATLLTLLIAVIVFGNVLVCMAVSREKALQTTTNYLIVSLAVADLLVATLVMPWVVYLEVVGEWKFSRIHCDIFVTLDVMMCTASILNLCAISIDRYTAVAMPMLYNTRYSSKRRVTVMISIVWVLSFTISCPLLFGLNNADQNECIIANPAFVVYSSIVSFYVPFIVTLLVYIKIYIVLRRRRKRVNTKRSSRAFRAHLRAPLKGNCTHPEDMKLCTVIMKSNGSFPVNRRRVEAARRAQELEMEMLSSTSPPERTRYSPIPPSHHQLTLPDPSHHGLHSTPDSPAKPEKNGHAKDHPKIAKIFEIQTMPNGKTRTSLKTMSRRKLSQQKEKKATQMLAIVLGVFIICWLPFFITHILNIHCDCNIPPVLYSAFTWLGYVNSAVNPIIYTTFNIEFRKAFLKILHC
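DiscoveRx PathHunter D2 beta-arrestin cells (2,100/well) attached overnight, then compound-stimulated 90 min at 37 C in HBSS/10 mM HEPES/0.1% Tween-20 buffer; beta-galactosidase complementation read by luminescence after 1 h at ambient temperature. Dopamine 57 uM final (EC100) as control.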
PINK1 modulator: changes PINK1 expression; PINK1 immunofluorescence, high-content cytometry, 24 h; actives 0.2% (n = 410,000); Potency, µM (titrated, usually from 76.6 µM), inactives show top-dose activation (PINK1 increase), usual class: activators; active = well fitted activation curve with a large enough effect; inconclusive = small, poorly fitted or top-dose-only effect; inactive = flat fitted curve, though single readings scatter; cell line not stated here;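 note: potency is the fitted concentration of half-maximal effect; % of control where 0% means no effect; nearly all actives have a fitted effect of over 65% in size; a mitochondrial uncoupler was the plate control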
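PINK1 protein level read as immunofluorescence by microplate cytometer in a fixed, stained stable cell line after 24 h exposure to five compound concentrations, with CCCP as control.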
CtBP-E1A blk: CtBP/E1A binding inhibition. AID 651724. AlphaScreen GST-E1A/His-CtBP binding, 1536-well; active compounds read low; control for the full effect not named in the record. activity change, % (concentration not given with the values). actives 0.49% (n = 340,000); in the data active means activity change below about -65%; inconclusive means about -30% to -65%; inactive means above about -30%; note: % is set by controls: 0 for no effect and ±100 for the full control effect
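Homogeneous bead-based format: GST-tagged E1A captured on glutathione donor beads, His-tagged CtBP on nickel acceptor beads; compounds precede bead addition by 2 h at 37 °C.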
TRPML1 blocker: inhibitors of human TRPML1 channel | activity change, negative = inhibition, % (test concentration not listed) | Q9GZU1 | actives 0.02% (n = 390,000) | TRPML1-inducible cells, Ca2+ dye fluorescence, FDSS; active compounds read low; inhibition of EC80 agonist-evoked calcium signal; in the data active means activity change below about -50%; inconclusive means about -30% to -50%; inactive means above about -30%;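 note: stimulus is agonist 54-4 at its EC80 concentration; % is set by controls: 0 for no effect and ±100 for the full control effect; compound concentration not given in the record; the text of the record puts the active cut at -80%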
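Calcium fluorescence in TRPML1-DL cells induced overnight with Tet: a 110 s read after compound pin addition, then a 110 s antagonist read after challenge with 54-4 at 4 uM final (EC80).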
Six1-Eya2 blk: Six1/Eya2 interaction inhibition. Q15475+O00167. AlphaScreen GST-Six1/His-Eya2 binding, biochemical; active compounds read low; control for the full effect not named in the record. activity change, % (test concentration not listed). actives 0.56% (n = 360,000); in the data active = activity change below about -65%; inconclusive = about -30% to -65%; inactive = above about -30%; note: % is set by controls: 0 for no effect and ±100 for the full control effect
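AlphaScreen luminescence read after one hour at 37 °C in darkness. Pin-transferred compounds met GST-Six1 and His-Eya2 protein (5X stock 250 nM/500 nM) plus glutathione donor and Ni-chelate acceptor beads (5X, 50 ug/mL).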
* = called active by the depositor; ? = inconclusive; . = not tested or not shown; [ ] = dose if it differs, or a comment. Outcome played no part in choosing rows; any-hit rate near 1%.

SMILES	Six1-Eya2 blk	D2 ag	CtBP-E1A blk	TRPML1 agonist	TRPML1 blocker	PINK1 modulator
CCCCC(CC)C(=O)Nc1ccc(S(=O)(=O)N2CCCC2)cc1 (stereo unspecified)	-2	0.4	0	1.1	2	3.4%
CCCNC(C)(C)COC(=O)c1ccccc1	1	4.7	4	0.0	-12	-0.9%
Cc1ccc(S(=O)(=O)n2nc(-c3ccco3)nc2SCc2ccccc2)cc1	-1	-2.6	3	1.1	19	0.5%
O=C(CN(C(=O)c1ccc(Cl)cc1)C1CCCCC1)Nc1ccc(Cl)c([N+](=O)[O-])c1	-2	-3.7	16	0.1	13	?
Cc1ccc2nc(SCC(=O)Nc3ccc(F)cc3)nc(=O)n2c1	-3	-0.4	1	-0.7	10	3.1%
Cc1c(Cl)cccc1NC(=O)CCCN1C(=O)c2cccnc2C1=O	1	9.4	7	0.9	15	0.5%
COc1cc(C(=O)NCCNc2nc3c(C)cccc3cc2C#N)cc(OC)c1OC	-3	-1.5	0	-0.3	9	6.8%
CN1CCN(NC(=O)c2ccc(F)cc2)CC1	5	-3.6	-4	-0.6	25	-4.2%

Of the compounds above, two have an aryl thioether with sulfur outside any ring:
SMILES	Six1-Eya2 blk	D2 ag	CtBP-E1A blk	TRPML1 agonist	TRPML1 blocker	PINK1 modulator
Cc1ccc(S(=O)(=O)n2nc(-c3ccco3)nc2SCc2ccccc2)cc1	-1	-2.6	3	1.1	19	0.5%
Cc1ccc2nc(SCC(=O)Nc3ccc(F)cc3)nc(=O)n2c1	-3	-0.4	1	-0.7	10	3.1%

An excerpt from above, showing only CtBP-E1A blk, TRPML1 blocker and PINK1 modulator:
SMILES	CtBP-E1A blk	TRPML1 blocker	PINK1 modulator
Cc1ccc(S(=O)(=O)n2nc(-c3ccco3)nc2SCc2ccccc2)cc1	3	19	0.5%
O=C(CN(C(=O)c1ccc(Cl)cc1)C1CCCCC1)Nc1ccc(Cl)c([N+](=O)[O-])c1	16	13	?
Cc1ccc2nc(SCC(=O)Nc3ccc(F)cc3)nc(=O)n2c1	1	10	3.1%

Other records follow:
SMILES	Six1-Eya2 blk	D2 ag	CtBP-E1A blk	TRPML1 agonist	TRPML1 blocker	PINK1 modulator
COc1ccc(CCN2C(=O)c3cccnc3C2=O)cc1OC	-3	-1.9	-5	-0.3	-6	-0.7%
COc1ccccc1CNC(=O)Cn1ncc2c(=O)oc3ccc(C)cc3c21	.	.	.	-0.9	29	-1.1%
CC(C)(C)n1nc2c(c1NC(=O)c1ccco1)CS(=O)C2 (stereo unspecified)	0	-2.7	-6	0.9	-7	-2.0%
CS(=O)(=O)c1cnc2c(-c3ccc(F)cc3)cnn2c1N	-2	-0.8	-2	0.0	7	1.3%
Cc1ccc(C(C)C)c(OCc2n[nH]c(=S)o2)c1	11	2.3	4	-0.7	-16	0.8%
COc1cccc(NC(C)C(=O)Nc2cc([N+](=O)[O-])ccc2Cl)c1 (stereo unspecified)	-12	-0.4	-21	-1.3	9	-0.1%
COc1cccc(-c2nnc(NC(=O)Cc3cccs3)s2)c1	-2	4.8	-4	0.1	-3	0.2%
COC(=O)CCC(=O)OC1(C)C(=O)C=C2C=C(C3CC3)N(CCc3ccccn3)C=C2C1=O (stereo unspecified)	-16	5.9	-6	-0.4	-3	-0.8%
COc1cc2c(c(OC)c1OC)-c1ccc(NC(=O)c3ccccc3)c(=O)cc1[C@@H](NC(C)=O)CC2	3	3.4	-1	0.6	10	-1.7%
CC(=O)NCC(=O)N1CCC(n2nccc2NC(=O)CCCc2ccccc2)CC1	2	-3.2	-1	-0.3	-10	0.2%
CC(=O)N1CCCc2cc(S(=O)(=O)N3CCC(C(=O)Nc4cccc(Cl)c4C)CC3)ccc21	.	.	.	0.2	-20	-0.3%
CCOCc1[nH]c(=S)[nH]c(=O)c1Cc1ccc(OCC)cc1	0	-1.7	.	0.9	-13	0.4%
Cc1ccc(NC(=O)CCCN2C(=O)/C(=C/C=C/c3ccccc3)SC2=S)cc1	15	0.8	27	0.8	-14	2.8%
Cc1ccc(-n2c(SCC(=O)NCc3ccc(F)cc3)nc3c([nH]c4ccccc43)c2=O)cc1	.	.	.	2.8	6	-3.7%
Cc1nnc(-c2cnn(-c3ccccc3)c2N)n1Cc1ccncc1	0	-1.6	1	-0.6	-7	1.9%
O=C(O)c1ccc(COc2ccccc2/C=C2\NC(=O)N(Cc3ccccc3)C2=O)cc1	-1	-2.1	-17	2.2	2	-1.0%
COC(=O)c1nnn(-c2nonc2N)c1CSc1ccccn1	0	-2.3	2	-0.4	-4	-0.7%
CN(C(=O)c1ccc(NC(=O)Cc2cccc(NC(=O)C3CCCN(C(=O)C4CC4)C3)c2)cc1)C1CC1 (stereo unspecified)	1	-0.5	-2	-0.6	23	1.9%
Cc1cc(-c2nnc(CCC(=O)NC(C)c3ccc(F)cc3)o2)no1 (stereo unspecified)	12	-3.3	0	0.2	-10	-0.5%
Nc1nc(SCc2c(Cl)cccc2Cl)n[nH]1	3	-2.7	3	0.4	21	0.0%
COc1ccc(NC(=O)CN2C(=O)C(C)Oc3ccc(C)cc32)cc1 (stereo unspecified)	-10	-3.0	-5	1.3	-8	-1.0%
CC(OC(=O)COc1ccc(C#N)cc1)C(=O)Nc1ccc(Cl)cn1 (stereo unspecified)	-1	-0.1	1	-0.6	-7	0.7%
Cc1ccc(NC(=O)c2c(C)oc3ncn(C)c(=O)c23)cc1F	.	.	.	-0.5	-3	-0.5%
Cc1ccc[n+](CC2OCc3ccccc3CO2)c1	5	0.5	0	0.5	-5	-0.1%
CCOC(=O)c1cnc(SCC(=O)NCc2ccco2)nc1N	-4	-3.0	0	-0.9	-4	0.0%
Cc1nc2ccccc2n1C1CC(=O)N(N(C)C)C1=O (stereo unspecified)	1	-1.5	1	-0.2	4	5.7%[38.3 µM]
CC(C)(C)c1ccc(S(=O)(=O)Nc2ccc(C(=O)N3CCCC3)cc2)cc1	-1	-1.0	-4	0.5	19	2.1%
C=CCc1c(C)nc(SC)nc1Nc1ccc(C)cc1	2	-5.6	11	-0.4	0	-0.7%[38.3 µM]
Cc1[nH]c2ccc(C(=O)NC3CCC(C)CC3)cc2c1C (stereo unspecified)	-6	1.6	.	-0.6	-21	2.4%
CC1(C(=O)NS(=O)(=O)c2cccc(C#N)c2)CCN1C(=O)c1ccco1 (stereo unspecified)	12	-3.7	2	-0.1	-25	0.1%
Cc1ccc(NC(=O)COc2cccc(Oc3ccccc3)c2)cc1S(=O)(=O)N1CCOCC1	-1	2.8	11	0.6	0	5.5%
COC(=O)C[N+](C)(C)C/C=C\c1ccccc1	10	-3.4	6	-0.4	-10	2.9%
Cc1nn(C)c(C(=O)NNC(=S)NC2CCCCC2)c1Cl	-14	-11	-9	-0.1	-1	-0.1%
CCN(CC(=O)Nc1c(F)cccc1F)C(=O)CCN1C(=O)C2CCCCC2C1=O (stereo unspecified)	6	-1.4	2	0.3	2	-1.9%
COc1ccc(S(=O)(=O)N2CCCC2)c(Cl)c1Cl	8	3.1	-4	-0.1	-10	-0.4%
O=C(/C(=C/O)N=Nc1ccccc1)c1ccc(Cl)cc1	-11	-19	.	0.7	9	-0.4%
O=C(NCc1ccc2c(c1)OCO2)C1CCCN1S(=O)(=O)c1ccc(Cl)cc1 (stereo unspecified)	9	-1.6	0	-0.9	-19	1.1%
O=C(Nc1ccc(S(=O)(=O)N2CCCCCC2)cc1)c1ccco1	-1	-1.1	-1	-1.1	3	-0.8%
CN(Cc1nccn1C)C(=O)CC1C(=O)NCCN1Cc1ccc(F)cc1Cl (stereo unspecified)	-7	-3.1	11	1.0	3	1.5%
N#CCCNC(=O)CCN1CCOCC1	-4	-0.9	0	0.7	3	-1.3%
CC(C)C[C@H](NC(=O)c1nc[nH]c1C(=O)N1CCN(c2ccccc2)CC1)C(=O)OC(C)(C)C	-8	-0.7	-9	0.6	4	1.1%
C=CCNC(=O)COC(=O)c1cc(S(=O)(=O)N2CCOCC2)ccc1N1CCCCC1	10	-3.0	-3	-0.5	-11	-0.9%
COC(=O)N/N=C(\C)c1ccco1	2	-1.2	.	-0.7	17	0.9%
FC(F)(F)c1cccc(N2CCN(C3CC4CCC3C4)CC2)c1 (stereo unspecified)	4	1.1	1	-0.1	0	5.4%
Cc1c(Br)c([N+](=O)[O-])nn1CC(=O)Nc1ccc(Cc2ccncc2)cc1	-10	-4.7	-18	2.0	-21	0.8%
CCc1ccc2oc(C(=O)NCc3ccccc3)cc(=O)c2c1	.	.	.	-0.6	-11	3.9%
CCCCN(C=O)c1c(CC)nc2c(OCCOc3ccc(F)cc3)cccn12	-3	1.6	0	0.7	-7	0.0%
Cc1cc2oc(=O)cc(CN3CCN(Cc4ccc5c(c4)OCO5)CC3)c2cc1C	7	1.7	-2	-0.1	-3	1.3%
O=C(NCCSCc1c(F)cccc1Cl)C1CCN(S(=O)(=O)Cc2ccccc2)CC1	.	.	.	-0.3	5	3.8%
O=S(=O)(NC1CCCCC1N1CCCCC1)c1ccc(Cl)cc1 (stereo unspecified)	0	2.8	2	0.1	29	0.4%
CCCCNC(=S)NNC(=O)c1ccc(Br)o1	-13	-0.6	-7	0.3	-19	0.7%
Cc1ccc2c(c1)=C(c1ccccc1)N(O)CC(=O)N=2	4	-2.9	8	0.0	-5	-2.7%
CSc1ccc(Cl)c(C(=O)NCCOc2ccccc2)c1	0	-2.3	-3	1.8	18	1.1%
O=c1[nH]c2sc3c(c2c(=O)n1Cc1ccccc1)CCC3	-1	-3.2	5	-1.2	-2	1.7%
Cc1ccccc1-c1cc(C(=O)N/N=C/c2cccnc2)c2ccccc2n1	5	-2.7	-5	6.2	16	-0.1%
O=C(Nc1ccc(S(=O)(=O)N2CCCCC2)cc1)c1ccc(Cl)nc1	-17	0.6	-28	0.3	-11	6.1%

Next records.
SMILES	Six1-Eya2 blk	D2 ag	CtBP-E1A blk	TRPML1 agonist	TRPML1 blocker	PINK1 modulator
C/C(=N\NC(=O)c1csc(C)c1C)c1ccc(Cl)s1	-3	-5.9	1	-1.4	17	-1.1%
Cc1nn(CC2CC2)c(=O)n1-c1ccc(C(C)C)cc1	5	-0.3	4	1.0	31	2.0%
Cc1ccc2nc(C)cc(C(=O)N/N=C/c3ccncc3)c2c1	2	1.1	3	-0.3	4	0.5%
Cc1ccc(NC(=O)c2ccc(=O)[nH]n2)cc1S(=O)(=O)Nc1ccc(SC(F)F)cc1	-21	-2.8	.	-1.3	0	5.8%
O=C(CCC1CCCC1)N1CCc2c([nH]c3ccccc23)C1c1ccc(Cl)cc1 (stereo unspecified)	.	.	.	3.2	-3	-0.3%
C/C(=N\NS(=O)(=O)c1ccc(C(C)(C)C)cc1)c1ccccc1	4	-0.5	-6	.	.	9.4%
COc1cccc(CN2CCN(c3nc4nonc4nc3N3CCCCC3)CC2=O)c1	6	1.5	.	1.9	6	0.1%
CCNC(=O)CCSc1nc2cc(Cl)ccc2o1	3	-2.0	4	-0.6	9	1.0%
